Six1-Eya2 inh = Six1/Eya2 interaction inhibition; Q15475+O00167; AlphaScreen GST-Six1/His-Eya2 binding, biochemical; stronger effect = lower value; control for the full effect not named in the record; activity change, % (test concentration not listed); 0.56% of 360,000 active; AID 651725; in the data active = activity change below about -65%; inconclusive = about -30% to -65%; inactive = above about -30%; note: % is set by controls: 0 for no effect and ±100 for the full control effect; compound concentration not given in the record
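Compounds are tested against tagged Six1 and Eya2 proteins bridged by glutathione donor and nickel acceptor beads; after a one-hour incubation at 37 °C without light, AlphaScreen emission is recorded.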
PINK1 modulator = PINK1 expression modulation; Potency, µM (doses to about 76.6 µM), for inactives: at the top dose activation (PINK1 increase), most hits filed as activators; PINK1 immunofluorescence, high-content cytometry, 24 h; AID 624263; 0.2% of 410,000 active; active = well fitted activation curve with a large enough effect; inconclusive = small, poorly fitted or top-dose-only effect; inactive = flat fitted curve, though single readings scatter; cell line not stated here;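 note: potency is the fitted concentration of half-maximal effect; % of control where 0% means no effect; nearly all actives have a fitted effect of over 65% in size; a mitochondrial uncoupler was the plate control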
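Measures PINK1 amount and localization on or inside mitochondria by immunofluorescence. Stable cells get compounds at 5 concentrations for 24 hours before fixation and staining; CCCP controls included.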
TRPML1 ag = activates the human TRPML1 channel | Q9GZU1 | TRPML1-expressing cells, Ca2+ dye fluorescence, FDSS; host cell line not named in the record; reference of the full effect not given here | activation, % (no concentration beside the values) | 0.12% of 410,000 active; in the data active = activation above about 50%; inconclusive = about 30% to 50%; inactive = below about 30%; note: 0% is about no effect; the text of the record puts the active cut at 80%
Target sequence (Q9GZU1 whole entry, looked up): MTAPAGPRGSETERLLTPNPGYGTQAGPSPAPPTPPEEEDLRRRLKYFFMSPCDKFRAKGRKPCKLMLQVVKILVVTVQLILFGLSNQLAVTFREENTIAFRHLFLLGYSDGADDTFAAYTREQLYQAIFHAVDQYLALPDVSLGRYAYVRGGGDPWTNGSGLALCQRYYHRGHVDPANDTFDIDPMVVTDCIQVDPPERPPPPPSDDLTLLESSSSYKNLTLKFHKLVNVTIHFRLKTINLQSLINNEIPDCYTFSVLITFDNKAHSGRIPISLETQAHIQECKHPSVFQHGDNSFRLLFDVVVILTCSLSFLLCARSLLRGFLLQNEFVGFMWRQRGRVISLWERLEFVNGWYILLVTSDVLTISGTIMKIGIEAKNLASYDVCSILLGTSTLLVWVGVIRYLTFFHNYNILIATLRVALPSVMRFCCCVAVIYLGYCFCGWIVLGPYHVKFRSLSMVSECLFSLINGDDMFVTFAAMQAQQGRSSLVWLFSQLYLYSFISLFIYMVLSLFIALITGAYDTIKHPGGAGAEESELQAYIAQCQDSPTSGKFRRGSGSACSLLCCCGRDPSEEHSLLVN
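Agonist activity was taken from a 110 s kinetic Ca2+ dye read on the FDSS after pinning compounds onto TRPML1-DL cells. The cells were seeded at 1,500/well with Tet inducer, incubated about 16 h, then dye-loaded at room temperature.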
CtBP-E1A inh = inhibitors of CtBP/E1A interaction; 0.49% of 340,000 active; AID 651724; activity change, % (no concentration beside the values); AlphaScreen GST-E1A/His-CtBP binding, 1536-well; stronger effect = lower value; control for the full effect not named in the record; in the data active means activity change below about -65%; inconclusive means about -30% to -65%; inactive means above about -30%; note: % is set by controls: 0 for no effect and ±100 for the full control effect; compound concentration not given in the record
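Homogeneous bead-based format: GST-tagged E1A captured on glutathione donor beads, His-tagged CtBP on nickel acceptor beads; compounds precede bead addition by 2 h at 37 °C.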
D2 PAM = positive allosteric modulators of human D2 dopamine receptor. 0.23% of 360,000 active. potentiation, % (concentration not given with the values). DiscoveRx D2 beta-arrestin cells, luminescence, 90 min; 100% = 57 uM dopamine signal; active = potentiation of 50% or more; inconclusive = 30% to 50%; inactive = 30% or less;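 note: compound concentration not given in the record; tested on top of an EC20 dose of dopamine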
Target sequence (P14416 whole entry, looked up): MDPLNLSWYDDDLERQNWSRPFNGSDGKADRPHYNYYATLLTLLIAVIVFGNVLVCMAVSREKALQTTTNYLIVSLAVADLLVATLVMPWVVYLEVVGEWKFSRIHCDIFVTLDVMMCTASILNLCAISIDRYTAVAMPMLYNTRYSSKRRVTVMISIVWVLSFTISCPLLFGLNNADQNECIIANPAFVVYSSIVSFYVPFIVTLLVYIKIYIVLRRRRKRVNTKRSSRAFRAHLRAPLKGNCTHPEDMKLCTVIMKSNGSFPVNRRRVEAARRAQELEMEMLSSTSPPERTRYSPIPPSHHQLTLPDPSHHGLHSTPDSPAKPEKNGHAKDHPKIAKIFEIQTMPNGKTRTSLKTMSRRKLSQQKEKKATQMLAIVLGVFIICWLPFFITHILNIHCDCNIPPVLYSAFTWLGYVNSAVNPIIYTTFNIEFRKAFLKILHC
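D2 cells co-treated with compound plus 50 nM dopamine (EC20) for 90 min at 37 deg C to detect potentiation. Beta-arrestin recruitment was read as enzyme-fragment luminescence after 1 h at ambient temperature. Full response was set by 57 uM dopamine.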
D2 ag = human D2 receptor agonism in beta-arrestin assay. DiscoveRx PathHunter D2 beta-arrestin, luminescence, 90 min; 100% = 57 uM dopamine signal. P14416. 0.084% of 360,000 active. activation, % (test concentration not listed); in the data active = activation above about 40%; inconclusive = about 15% to 40%; inactive = below about 15%; note: compound concentration not given in the record; the text of the record calls up to 30% inactive
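DiscoveRx PathHunter D2 beta-arrestin cells (2,100/well) attached overnight, then compound-stimulated 90 min at 37 C in HBSS/10 mM HEPES/0.1% Tween-20 buffer; beta-galactosidase complementation read by luminescence after 1 h at ambient temperature. Dopamine 57 uM final (EC100) as control.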
* marks the source's active call; other numbers are inactive results; ? = inconclusive; / = not tested or not shown; [ ] = dose if it differs, or a comment.

SMILES | Six1-Eya2 inh | PINK1 modulator | TRPML1 ag | CtBP-E1A inh | D2 PAM | D2 ag
O=C(CN(CCO)c1ccccc1)Nc1cccc(S(=O)(=O)N2CCCC2)c1 | -10.8 | 0.2% | -0.3 | 5.1 | -2.5 | -1.1
COc1ccc(CN2C[C@H]3CON(C)[C@H]3C[C@H]2c2ccc(-c3cccc(F)c3)cc2)cc1 | -4.3 | 2.5% | -0.4 | -0.1 | 1.7 | -11.4
CC(C)C1Oc2ccccc2N(CC(=O)NC2CCCCC2)C1=O (stereo not drawn) | -2.2 | -0.5% | 1.2 | 8.6 | -0.2 | -1.3
O=C(C1COc2ccccc2O1)N1CCN(c2nc3ccccc3s2)CC1 (stereo not drawn) | -9.8 | -1.4% | -0.5 | 3.8 | -5.4 | 1.1
CCOc1ccc(-c2c(=O)n(OCc3ccccc3Br)c3ccccc3[n+]2[O-])c(OCC)c1 | -2.3 | 2.3% | 2.6 | / | -1.7 | -2.4
O=C(COC(=O)c1ccccc1F)NNC(=O)c1ccccc1 | 0.6 | 0.2% | 1.5 | 3.9 | -9.8 | 0.5
CCCCc1ccc(S(=O)(=O)Nc2cc(C)on2)cc1 | -0.8 | / | -0.4 | 7.4 | -5.8 | -1.8
Cc1ccc(OCC(=O)N2C(C)CCCC2C)c([N+](=O)[O-])n1 (stereo not drawn) | -3.4 | 0.0% | 0.4 | 11.8 | 10.4 | -2.4
C/C=C\C=C/C(=O)Nc1cccc(C2=NOC3(C2)C[C@@H](C(N)=O)N(C(=O)COc2ccc(Cl)cc2)C3)c1 (stereo partly drawn) | -5.4 | -0.5% | 0.2 | -7.0 | -4.8 | -1.7
COCCNC(=S)N(CCCO)Cc1cc2cc3c(cc2[nH]c1=O)OCCO3 | 4.2 | -1.3% | -0.7 | 11.3 | -3.0 | 0.0
O=C(COC(=O)CCS(=O)(=O)c1ccccc1)NC(=O)c1ccc(OC(F)F)cc1 | 7.5 | -0.4% | -0.5 | 2.8 | -2.5 | -1.0
O=C(Nc1ccc2c(c1)OCCO2)C1CCC1 | 4.4 | 3.6%[38.3 µM] | 0.2 | 7.1 | 7.5 | 1.5
COc1ccccc1C(=O)N/N=C/c1c[nH]c2ccccc12 | -9.5 | 0.5% | 1.6 | / | -10.6 | -4.4
Cc1nn(CCC(=O)N2CCN(S(=O)(=O)c3ccccc3)CC2)c(C)c1C | 2.1 | -0.1% | -0.3 | -5.5 | -11.3 | -3.3
CC(C)Oc1ccc(C(=O)N2CCCC2C(=O)O)cc1 (stereo not drawn) | 5.3 | 1.9%[38.3 µM] | 1.2 | 5.8 | 3.3 | 0.2
Cc1cc(/C=C(\C#N)C(=O)NCCc2c[nH]c3ccccc23)c(C)n1C | -25.6 | 1.0% | 2.9 | -20.7 | -6.3 | -3.0
O=C(Nc1nc(=S)ss1)c1ccc(Cl)cc1Cl | 6.3 | 0.2% | 0.7 | 12.9 | -1.0 | -0.2
CCOC(=O)C1CCN(Cc2cnc(Oc3ccc(Cl)cc3C)s2)CC1 | -1.3 | 0.7%[38.3 µM] | 0.7 | 1.8 | 14.5 | ?
C[C@H](CO)N1C[C@H](C)[C@@H](CN(C)C(=O)Nc2ccc(C(F)(F)F)cc2)Oc2c(NC(=O)Nc3ccc4c(c3)OCO4)cccc2C1=O | -1.4 | -0.3% | 0.0 | -5.3 | -5.6 | -5.7
Cc1cc2c(c(N)n1)c(=O)oc1ccccc12 | -1.3 | -1.6% | -0.2 | -6.5 | -14.6 | 0.6
COc1ccc(CNc2ccc3c(c2)ncn3C)cc1OC | -3.7 | 11.8% | -0.4 | 4.5 | -2.5 | 0.3
Cc1ccccc1SCC(=O)Nc1cc(C(F)(F)F)ccc1N1CCOCC1 | 23.3 | 7.2% | 11.5 | 19.1 | -25.5 | 1.2
COc1cccc(/C=N/NC(=O)C[n+]2ccccc2)c1O | -86.8* | -1.1% | -0.3 | -88.3* | 0.0 | -4.7
O=C(COC(=O)Cc1c(Cl)cccc1Cl)NC1CCCC1 | 2.9 | 1.2% | 0.1 | / | 4.8 | 6.1
CC(C)(C)c1ccc(C(=O)NCCNC(=O)c2ccco2)cc1 | 3.0 | -0.2% | -0.2 | -4.6 | -2.8 | -1.3
Cc1nc(CCNC(=O)Cc2ccc(Cl)cc2)cs1 | 0.2 | 0.4% | 0.0 | 9.5 | -10.7 | -3.8
CCOc1ccc(-c2nc(-c3cccnc3)no2)cc1OCC | 0.6 | 0.5% | -1.1 | -0.4 | -5.8 | 0.7
CCc1cccc(C)c1NC(=O)c1cccc(N(C)C)c1 | -5.9 | 0.7% | -0.9 | 0.0 | -20.7 | -3.2
Cc1cc2c(NC(=O)CCCC(=O)O)cccc2nn1 | 5.7 | 2.9% | -0.2 | -1.6 | -3.3 | -3.4
COc1ccc(-c2n[nH]c(=S)n2-c2ccc(C)cc2)cc1OC | 3.2 | -0.9% | -0.7 | 4.5 | -4.5 | 6.9
Cc1ccc(Cc2c(-c3ccc(Cl)cc3)nc3ccc(Br)cn23)cc1 | 3.2 | 6.5% | -0.4 | 3.9 | -0.5 | -9.6
CC(=O)Nc1ccc(N/C=C/C(=O)c2ccc(C)o2)cc1 | -5.2 | -3.2%[38.3 µM] | -0.2 | -29.1 | 3.0 | 1.5
CCOc1ccccc1NC(=O)CCS(=O)(=O)c1ccc2c(c1)CCN2C(C)=O | -1.0 | 1.2% | 0.4 | 2.0 | -4.8 | 0.0
CCOCCSC1=C(C#N)C(c2cccs2)C(C(C)=O)=C(C)N1 (stereo not drawn) | 8.0 | -1.6% | 2.0 | 7.5 | -14.4 | -1.2
Cc1ccc(NC(=O)C2(c3ccccc3)CC2(Cl)Cl)cc1C (stereo not drawn) | 4.5 | ? | 1.2 | 10.7 | -5.6 | -5.3
COc1ccc(OCC(O)Cn2c(Nc3ccccc3)nc3c2c(=O)n(C)c(=O)n3C)cc1 (stereo not drawn) | -3.1 | 0.3% | -1.5 | 2.7 | ? | -4.8
Cc1ccc2nc(SCc3nc4c(cnn4-c4ccccc4)c(=O)[nH]3)[nH]c2c1 | -0.5 | ? | 0.4 | 2.9 | -0.1 | 0.8
CCC(CC)C(=O)N(C)c1c(C)nc2c(OCc3cc(Cl)cc(Cl)c3)cccn12 | -20.5 | 9.1% | 0.5 | -25.4 | -8.7 | 5.1
Cc1c(C)c2cc(Cl)c(OCC(=O)NCCCn3ccnc3)cc2oc1=O | -27.4 | 0.1% | -0.1 | ? | 3.3 | -5.5
Cc1cc(C)cc(N(CC(=O)N2CC=C(c3ccccc3)CC2)S(=O)(=O)c2c(C)noc2C)c1 | -2.9 | 0.5% | 0.8 | 8.9 | -5.7 | 0.1

Rewritten field by field: part of the list above.
CCOc1ccccc1NC(=O)CCS(=O)(=O)c1ccc2c(c1)CCN2C(C)=O
  Six1-Eya2 inh = -1.0 | PINK1 modulator = 1.2% | TRPML1 ag = 0.4 | CtBP-E1A inh = 2.0 | D2 PAM = -4.8 | D2 ag = 0.0
CCOCCSC1=C(C#N)C(c2cccs2)C(C(C)=O)=C(C)N1 (stereo not drawn)
  Six1-Eya2 inh = 8.0 | PINK1 modulator = -1.6% | TRPML1 ag = 2.0 | CtBP-E1A inh = 7.5 | D2 PAM = -14.4 | D2 ag = -1.2

Next structures follow:
SMILES | Six1-Eya2 inh | PINK1 modulator | TRPML1 ag | CtBP-E1A inh | D2 PAM | D2 ag
[O-]/C(=C(\C(=S)Nc1ccccc1F)[n+]1ccccc1)c1ccc(-c2ccccc2)cc1 | 1.6 | 9.8% | -1.5 | -1.5 | -6.2 | -0.7
COC(=O)CN1C(=O)COc2ccc(S(=O)(=O)N3CCCC3)cc21 | -9.8 | 0.4% | -0.3 | -1.2 | -41.3 | 3.7
O=C(N/N=C1\CCSc2ccc(F)cc21)c1cccnc1 | 1.5 | 0.5% | 2.2 | -0.3 | -19.5 | -4.1
Cc1cc(C)nc(-n2nc(C)cc2NC(=O)c2cc3ccccc3oc2=O)n1 | -5.1 | 0.1% | 0.7 | -15.1 | -3.3 | 0.0
COc1ccc(OC)c(C(=O)CSc2nc3ncccc3[nH]2)c1 | -14.1 | 1.2% | 0.7 | -12.7 | -2.3 | 0.4
CCN(CC)S(=O)(=O)c1csc(C(=O)OCC(=O)c2ccccc2)c1 | 10.9 | -0.4% | 7.0 | 1.0 | -2.1 | -0.3
CCOc1ccc(/C=N/NC(=O)C(O)c2ccccc2)c(O)c1 (stereo not drawn) | ? | -0.8% | -0.7 | -84.7* | -8.6 | -0.6
COc1ccccc1N1CCN(C(=O)C2=CC=CN3CCS(=O)(=O)N=C23)CC1 | -15.9 | 3.5% | 0.0 | -3.5 | -8.8 | -12.8
NC(=O)CSc1ncnc2c1cnn2Cc1ccccc1 | 1.1 | -1.8% | -0.6 | 6.9 | -10.8 | -2.9
CCC(CC)NC(=O)COC(=O)c1ccc(OCC(=O)Nc2ccccc2OC)c(OC)c1 | 2.9 | 1.6% | 0.0 | 4.9 | -2.0 | -1.1
O=C(Nc1ccc(F)cc1F)c1cc2n(n1)C(C(F)(F)F)C1CCCCC1N2 (stereo not drawn) | 12.6 | 10.0% | 1.4 | -0.2 | -5.7 | 2.3
CC(=O)Nc1ccc(OCC(O)CN2CCN(c3cc(Cl)ccc3C)CC2)cc1 (stereo not drawn) | -6.8 | -1.2%[38.3 µM] | 0.8 | -12.9 | -20.6 | -2.6
Cc1ccc(C)c(NC(=O)CN(C)S(=O)(=O)c2ccc(F)cc2)c1 | -1.8 | / | -0.3 | -4.6 | -15.7 | -3.7
Cc1[nH]c(=O)[nH]c(=O)c1S(=O)(=O)N1CCCC(C(=O)NCc2ccco2)C1 (stereo not drawn) | 22.3 | -1.2% | 0.1 | 0.0 | -14.0 | -0.5
O=C(CCc1ccccc1)NNC(=S)NCc1ccc(Cl)cc1 | 0.2 | -1.0% | -0.4 | 0.3 | -6.8 | 0.4
COc1cc(OC)cc(C(=O)NC(=S)Nc2ccc(NC(=O)c3ccco3)cc2)c1 | 10.6 | ? | 0.4 | 1.4 | 11.7 | 1.1
O=C(O)C1CC(O)CN1C(=S)Nc1ccccc1 (stereo not drawn) | 7.5 | 1.0% | 0.9 | / | -5.4 | -4.6
CCc1ccc2[nH]c(C(=O)Nc3ccc(Br)c(C)n3)cc2c1 | -13.0 | -0.7% | 1.6 | 0.2 | -10.2 | -2.4
c1ccc(Oc2ccccc2-c2cc(NCCc3cccnc3)n3nccc3n2)cc1 | 15.1 | 2.2% | -0.5 | 16.3 | 0.5 | -5.0
Cc1ccc(C(=O)Nc2ccc(NC(=O)c3cccs3)cc2)cc1[N+](=O)[O-] | 7.0 | 4.8% | -0.3 | 5.9 | -4.8 | -4.0
COc1ccc(CC(=O)OCC(=O)NCCc2ccccc2)cc1OC | -14.9 | 4.1% | -0.2 | 9.7 | 9.0 | 3.4
O=c1[nH]c(/C(Cl)=C/c2cc(Cl)ccc2O)nc2cc(Cl)ccc12 | 2.3 | -2.4% | 0.7 | -12.0 | 3.6 | -2.2
C/C(=N\NC(=O)C(O)c1ccccc1)c1cccnc1 (stereo not drawn) | -2.2 | 1.4% | -0.1 | 2.3 | -5.7 | -3.1
CC1CN(C(=O)/C=C/c2ccccc2[N+](=O)[O-])CC(C)O1 (stereo not drawn) | -6.2 | 0.9% | -0.7 | 1.4 | -4.6 | -5.4
CC(C)COC(=O)N1CCCCC1c1cc(C(=O)NCc2ccc(F)cc2)no1 (stereo not drawn) | 6.5 | 1.0% | -0.2 | 11.1 | -8.4 | -1.9
